RN4220 kill: kills Staphylococcus aureus RN4220; 330,000 compounds, 0.33% hits; S. aureus RN4220 growth, OD600, 16 h; inhibition, % (no concentration beside the values);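 active means z-score of -3 or lower and OD600 up to 0.18 on both plates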;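 further: plate controls were untreated cells for no effect and reference antibiotic for full effect; stock transfer was 100 nL into about 80 µL; one replicate is shown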
PrP UTR inh: inhibition of PrP 5' UTR reporter expression | cell-based PrP 5' UTR mRNA reporter, plate reader | inhibition, % (concentration not given with the values) | 340,000 compounds, 0.35% hits | AID 488862;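 active means every replicate at 50% or more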;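 further: 0 = median of the neutral control wells; tested in H4 reporter cells; numbers are from one replicate; inactives centre near -14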
Mtb hypoxia rep: inhibitors of hypoxia-regulated fluorescent reporter in Mycobacterium tuberculosis; M. tuberculosis hypoxia-regulated fluorescent reporter, fluorescence; fluorescence inhibition, % (test concentration not listed); 300,000 compounds, 0.1% hits;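 active means 35 to 45% if threefold the growth effect, above 45% if 1.5-fold the growth effect; inactive means the rest, general growth blockers included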;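 further: wells of about 50 µL received 100 nL stock; 0% = vehicle wells and 100% = reference inhibitor wells; whole bacteria with a GFP reporter of the hypoxia response; strong numbers were not always called active; many hits fall short of the cut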
BJeLR lethal: BJeLR cell viability loss. inhibition, % (concentration not given with the values). BJeLR (HRASV12) viability, CellTiter-Glo ATP luminescence, 48 h; reference of the scale not given here. 300,000 compounds, 0.17% hits. AID 1554;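 active means replicate mean above 50%; inconclusive means above 50% but judged a plate artefact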;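 further: 50 nL library stock added to about 25 µL; numbers are from one replicate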
ugtP null kill: compounds lethal to S. aureus RN4220 ugtP deletion mutant; 330,000 compounds, 0.54% hits; growth inhibition, % (concentration not given with the values); AID 1259309; OD600 growth, 16 h; some inactives read as strong as hits;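 active means z-score under -3 and OD600 up to 0.15 on both plates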;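 further: plate controls were untreated wells for no effect and antibiotic for full effect; wells of about 80 µL received 100 nL stock; the first replicate is given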
Bead autofluor: compound fluorescence in toxin protease inhibitor counterscreen | fluorescence intensity (concentration not given with the values) | AID 624483 | compound autofluorescence counterscreen, microsphere flow cytometry; hits give high values | 360,000 compounds, 3.1% hits;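 active means at least 3 SD above the mean of all compounds, about 16000 in these data; inconclusive means too few beads counted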;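 further: 100 nL of 1 mM stock went into each well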
Mtb hypoxia rep growth: second read-out of Mtb hypoxia rep, no call of its own (marks repeat the call); growth inhibition, %; measured here: M. tuberculosis growth (absorbance);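 0% = vehicle and 100% = reference antibiotic; read after six days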
* = called active by the depositor; ? = inconclusive; · = not tested or not shown.

mol	RN4220 kill	PrP UTR inh	Mtb hypoxia rep	Mtb hypoxia rep growth	BJeLR lethal	ugtP null kill	Bead autofluor
CCOC(=O)c1ccc(S(=O)(=O)NCCN(CC)CC)cc1	0.1	-5	7	14	-3	2	3163
Cn1ccnc1COc1ccc(C=O)cc1	3.4	-14	12	0	19	1	3739
CC1=NN(C(=O)c2ccc(C)o2)C(O)(c2ccccc2)C1 (stereo not drawn)	5.7	-14	17	-1	·	7	10337
COc1c(C)cc(S(=O)(=O)N2CCCC2)c(C)c1C	7.7	-7	9	5	-8	10	17139*
Cc1[nH]c2ccccc2c1C(=O)CN1CCCCC1CCO (stereo not drawn)	-0.9	-16	·	·	7	8	4815
Cn1c(=O)c2c(nc(CN3CCN(c4ccccc4F)CC3)n2CCN2CCOCC2)n(C)c1=O	4.4	-33	17	5	10	-3	9019
O=C(COC(=O)CCS(=O)(=O)c1ccc(Cl)cc1)Nc1ncc(Cl)cc1Cl	0.5	-6	2	-4	1	8	2157
COc1ccc(C(C)(C)C)cc1S(=O)(=O)N1CCN(C)CC1	6.1	27	·	·	-3	-5	2234
COc1cc(C=NNc2ccc(C(=O)O)cc2)cc(OC)c1OC	2.2	·	7	2	·	8	·
CC(O)Cn1cnc2c1c(=O)n(C)c(=O)n2C (stereo not drawn)	3.2	0	2	-3	-4	-2	6165
CCn1cc(C(=O)N2CCN(c3ccc(C(C)=O)cc3)CC2)c2cc(OC)c(OC)cc2c1=O	-4.7	-14	3	0	-11	0	3280
Cc1sc2nc(SCC(=O)c3cccs3)n(Cc3ccco3)c(=O)c2c1C	0.9	4	-2	5	-9	16	22489*
CCC1CCCCN1C(=O)COc1ccc(S(=O)(=O)N2CCOCC2)cc1Cl (stereo not drawn)	4.5	-7	4	3	·	5	5560
CCCCC(=O)OCC(=O)Nc1ccc(OC(F)F)cc1	0.5	-8	·	·	-9	6	4156
COc1nc(-c2cnccn2)sc1C	1.3	-31	1	5	9	-1	3549
CCOc1cccc(CNCc2ccncc2)c1	3.8	-9	0	4	5	5	3543
CN=C(Nc1ccc(Cl)cc1)c1cccc(C(F)(F)F)c1	1.7	-40	2	1	1	-13	4257
Cc1ccc(C(C)C)c(Oc2cnccn2)c1	-1.0	0	-5	1	-13	-3	4008
O=C(c1ccc([N+](=O)[O-])cc1)N1CCN(c2ncccn2)CC1	3.0	-44	9	6	-3	11	5595
CCC(=O)NC(c1cccc([N+](=O)[O-])c1)c1c(O)ccc2ccccc12 (stereo not drawn)	2.8	1	3	0	-3	-1	4717
Cc1c(C(=O)OC(C)C(=O)N(C)Cc2ccccc2)oc2ccccc12 (stereo not drawn)	4.3	-14	11	5	·	5	?
CC(=NNC(=S)NCc1ccccc1)c1ccc(Cl)s1	5.0	·	-8	2	·	8	·
CCCCCc1ccc(CC(=O)Nn2c(C)nc3ccccc3c2=O)cc1	-3.2	-1	13	12	-17	3	8364
COc1ccc(CN2CCNC(=O)C2CC(=O)NCc2ccc(C)s2)c(OC)c1 (stereo not drawn)	3.2	2	1	5	3	3	2477
COc1ccc(/C=C/C(=O)NCC2COc3ccccc3O2)cc1OC (stereo not drawn)	3.1	-33	14	-6	-2	19	2215
Nn1c(SCc2ccccc2)nnc1-c1ccccn1	4.5	-45	17	19	3	-7	9422
COc1ccc(-n2nnnc2SCC(=O)Nc2cccc(NC(C)=O)c2)cc1OC	3.0	-31	3	8	-2	1	5933
COc1ccccc1NC(=O)N1CCC(c2nc3ccccc3o2)CC1	0.5	39	-3	-11	-5	2	3261
CCNc1nc(Oc2ccc(C(=O)OCC)cc2)nc(N2CCOCC2)n1	2.5	·	13	2	3	4	·
Cn1c(C(=O)N[C@@H](C(=O)O)c2ccccc2)cc2cc(F)ccc21	1.8	-13	13	7	-9	9	4181
Cc1[nH]c2ccccc2c1/C=N/Nc1ccc([N+](=O)[O-])cc1	·	-18	·	·	18	·	2996
CC(C=NNC(=S)Nc1cccc(S(=O)(=O)N(C)C)c1)c1ccccc1 (stereo not drawn)	4.1	·	9	4	·	6	·
O=[N+]([O-])c1cnc2ccccc2c1	0.6	-13	0	4	-14	10	6551
Cc1ccc(C2=NN(C(=O)CCC(=O)O)C(c3cn(-c4ccccc4)nc3-c3ccc(C)cc3)C2)cc1 (stereo not drawn)	12	-9	6	4	-5	-21	2532
O=C(CN1CCCCCC1)NCc1ccccc1	7.9	-7	8	12	·	17	4374
O=C(Nc1ccc(N2CCCC2)c(Cl)c1)c1ccccc1[N+](=O)[O-]	4.7	-19	2	5	-9	5	2253
Cc1nnc(SCC(=O)N2CCCCCC2)n(N)c1=O	3.4	-8	15	5	·	3	3397
CC(C)C[C@H](NC(=O)c1nc[nH]c1C(=O)NCc1ccccc1)C(=O)OCc1ccccc1	-0.2	-7	13	2	7	-18	3053
O=C(NNC1=NCCC1)c1cccc(Br)c1	1.2	-84	6	4	-3	0	4194
CC(C)c1[nH]c(=O)c(C#N)c2c1COC(C)(C)C2	1.5	4	5	6	-2	4	21618*
Brc1ccc(C=Nc2ccc(Nc3ccccc3)cc2)s1	5.0	-7	10	-1	-6	-7	1763
CSc1nc2c(c(=O)[nH]1)C(c1ccccc1)C1=C(CC(C)(C)CC1=O)N2 (stereo not drawn)	·	-24	·	·	-7	·	3984
COC(=O)Cc1cc(OC)c(OC)cc1Cc1cc(OC)c(OC)cc1CC(=O)OC	7.6	-11	17	11	-2	10	10588
Cc1ccccc1-n1ncc(C(C)NS(=O)(=O)c2sccc2C)c1C (stereo not drawn)	-1.1	-12	-4	4	-1	-2	4316
COc1ccc(/C=N/NC(=O)c2ccc(NC(=O)c3cccc([N+](=O)[O-])c3)cc2)c(C(=O)O)c1OC	·	-1	·	·	-4	·	2814

Among those listed so far, these contain bromine.
mol	RN4220 kill	PrP UTR inh	Mtb hypoxia rep	Mtb hypoxia rep growth	BJeLR lethal	ugtP null kill	Bead autofluor
O=C(NNC1=NCCC1)c1cccc(Br)c1	1.2	-84	6	4	-3	0	4194
Brc1ccc(C=Nc2ccc(Nc3ccccc3)cc2)s1	5.0	-7	10	-1	-6	-7	1763

Further results follow.
mol	RN4220 kill	PrP UTR inh	Mtb hypoxia rep	Mtb hypoxia rep growth	BJeLR lethal	ugtP null kill	Bead autofluor
CCCCN1C(=O)CC(Nc2ccc(CC)cc2)C1=O (stereo not drawn)	3.5	9	12	0	-15	3	7829
COc1ccc2c(CC(=O)Nc3ccc(OC)c(S(=O)(=O)N4CCOCC4)c3)coc2c1	5.1	-13	14	4	6	2	2436
COCCCN(C(=O)c1cc(-c2ccco2)nc2ccccc12)c1c(N)n(Cc2ccccc2)c(=O)[nH]c1=O	2.4	-5	-5	-4	-11	-4	·
COc1ccc(CCNC(=O)CC(NS(=O)(=O)c2ccc(NC(C)=O)cc2)C(C)C)cc1OC (stereo not drawn)	3.9	-10	·	·	-11	-1	2659
CN1CCN(c2nc(Cl)ncc2F)CC1	1.3	-20	8	3	4	6	4207
Cc1cc(C)c(NC(=O)CCCN2CCN(C)CC2)c(C)c1	-4.1	2	·	·	4	10	5051
COc1ccc(CCC(=O)OCC(=O)Nc2sccc2C#N)cc1	7.2	-7	9	2	·	5	3730
CCOC(=O)c1ccccc1NC(=S)N1CCN(C2CCCCC2)CC1	2.6	-10	4	1	-15	13	4457
O=C(NN=Cc1ccc(F)c(F)c1)c1ccc(NS(=O)(=O)c2cccs2)cc1	3.3	-9	12	10	·	-5	4375
Cc1ccc(C(=O)NC(=S)Nc2ccccc2C(F)(F)F)c(C)c1	6.5	0	-15	-2	2	53	2611
COc1ccc(CNS(=O)(=O)c2ccc(F)c(C(=O)Nc3ccc(OC)cc3)c2)cc1	1.0	-30	2	-3	-18	-3	4008
CCOC(=O)C1CCN(S(=O)(=O)c2cccc(C(=O)Nc3ccccc3)c2)CC1	2.2	-19	7	0	6	10	4319
CCOC(=O)/C(O)=C(\C#N)c1nc2ccccc2[nH]1	1.0	-52	-4	-2	0	0	4273
OCCNc1ncnc2c1ncn2Cc1ccccc1	-0.1	-7	6	5	-3	-8	5345
O=C(NN1C(=O)/C(=C/c2ccc(O)cc2)SC1=S)c1ccccc1O	6.6	-5	11	0	1	-11	4476

Part of the list above in a different format:
Values run as follows: RN4220 kill, PrP UTR inh, Mtb hypoxia rep, Mtb hypoxia rep growth, BJeLR lethal, ugtP null kill, Bead autofluor
- CCOC(=O)C1CCN(S(=O)(=O)c2cccc(C(=O)Nc3ccccc3)c2)CC1
→ 2.2, -19, 7, 0, 6, 10, 4319
- CCOC(=O)/C(O)=C(\C#N)c1nc2ccccc2[nH]1
→ 1.0, -52, -4, -2, 0, 0, 4273

Further records.
mol	RN4220 kill	PrP UTR inh	Mtb hypoxia rep	Mtb hypoxia rep growth	BJeLR lethal	ugtP null kill	Bead autofluor
CC(C)CCN1CCN(Cc2cccn2-c2cccnc2)CC1CCO (stereo not drawn)	1.7	-46	0	-8	-4	8	6533
O=C(NCCc1c[nH]c2ccccc12)N[C@@H](Cc1ccccc1)C(=O)O	1.1	-23	2	-1	3	14	3877
COc1ccc(NS(=O)(=O)c2ccc(O)c(NC(=O)c3ccc(S(=O)(=O)N4CCCC4)cc3)c2)cc1	7.6	-13	3	5	-3	4	6451
Cc1nc(-c2ccccc2)sc1C(=O)/C=C/c1ccc(Cl)cc1	-1.0	-23	·	·	7	0	2798
CCOC(CNC(=O)c1cc2c(=O)n(CC)c3ccccc3c2s1)OCC	-1.3	-4	-4	11	-3	13	3809
O=C(O)CC(C(=O)NCc1ccccc1)C1CCCO1 (stereo not drawn)	·	-41	·	·	6	·	2646
Cc1cccc(CCNCc2c(C(=O)O)c(C)n(-c3ccccc3)c2C)c1	-2.4	-5	-15	-1	-1	-7	3819
O=C(Nc1ccccc1NS(=O)(=O)c1ccc(F)cc1)C1CCC1	8.9	-15	15	7	-17	3	3951
COc1ccc(NC(=O)c2c(C)noc2-c2snnc2C)cc1	2.7	-14	18	10	14	15	4159
Cc1ccc(S(=O)(=O)N2CCN(C(=O)COC(=O)CCOc3ccccc3C)CC2)c(C)c1	11	-20	3	-1	·	3	6049
COc1cccc(NC(=O)Nc2cc(C(=O)NC(C)C)ccc2N2CC3CC(C2)c2cccc(=O)n2C3)c1 (stereo not drawn)	1.5	-5	6	-2	2	4	5614
CCCCNC(=O)c1onc(CSc2ccc(Cl)cc2)c1C(=O)NCCCC	6.8	-6	6	6	2	-31	3946
COc1ccc(CNC(=O)CC2C(=O)N(CCc3ccccc3)CC2Cc2ccccc2)cc1 (stereo not drawn)	3.7	·	11	14	·	8	·
Cc1noc(C)c1NC(=O)N(C)C[C@H]1Oc2ccc(NC(=O)c3ccncc3)cc2C(=O)N([C@H](C)CO)C[C@@H]1C	3.8	-33	7	7	·	3	3489
COc1cc(S(=O)(=O)Nc2cccc3cn[nH]c23)c(OC)cc1C	0.3	2	-6	5	8	-12	6115
COc1ccc(CN(C(=O)CCC(=O)N2CCCCC2)c2nccs2)cc1OC	2.0	-21	9	7	5	9	3529
CC(=O)N1N=C(N)SC12CCCC2	5.7	-37	-6	8	9	9	4446
O=C(Cn1cccc1C(=O)c1ccccc1)NCCN1CCCCCC1	2.0	4	1	12	1	1	3570
C[C@@]12C(=O)N(CC3CCCO3)CC(=O)N1C1c3cc(Cl)ccc3OCC1C2c1ccccc1 (stereo partly drawn)	11	·	3	16	·	15	·
CN(C)/C=C(\C=N\OCc1ccc(Cl)cc1Cl)C(=O)Nc1ccc(Cl)c(Cl)c1	·	-29	·	·	-3	·	6021
COC(=O)C1=CC(C(=O)OC)C2C3=C(C(=O)C2(C)C)C(c2ccccc2)C2C(=O)N(C)C(=O)C2C3C1 (stereo not drawn)	-1.6	·	-3	1	·	-2	·
Nc1nc2cc(S(=O)(=O)NC3=NCCCCC3)ccc2s1	2.2	-17	0	-6	3	6	4565
O=C(NCCO)/C(=C/c1ccc(Br)cc1)NC(=O)c1cccs1	7.4	-16	7	3	6	1	23982*
C[n+]1ccc(/C=C/c2ccccc2O)c2ccccc21	4.6	-18	-3	-5	2	4	4542
COc1ccc(-n2nc([N+](=O)[O-])c(=NC3CCN(Cc4ccccc4)CC3)n2O)cc1	21	-15	7	11	3	17	2087
